Screening data from PubChem.
Mtb growth: M. tuberculosis H37Rv growth inhibitors, H37Rv strain (AID 1626); inhibition, % at 10 µM, or IC50 in µM where a hit was titrated; 0.95% of 220,000 active; M. tuberculosis H37Rv growth inhibition; higher % means a stronger effect;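 active = confirmed in a dose series; inconclusive = inhibition above 80% but not taken into the dose series; inactive = below 80% or under 30% at every dose of the series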;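 also: bacteria incubated seven days before Alamar blue readout; 0% = bacteria only wells and 100% = bacteria with antibiotic wells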
Arbovirus inh: antivirals against arbovirus infection; arbovirus infection cell-based antiviral screen; inhibition, % at 10 µM; 0.37% of 200,000 active; AID 1251;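 active = inhibition from about 30%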;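 also: bluetongue infection of BSR cells; cell survival read as ATP light after 72 h; 0% = infected wells without compound and 100% = uninfected wells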
RecA intein inh: inhibitors of M. tuberculosis RecA intein splicing; AID 2221; 0.75% of 290,000 active; inhibition, %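 (about 9 µM by stock and volumes)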; P9WHJ3; cell-free RecA intein splicing, fluorescence; in the data active = inhibition above about 30%; inconclusive = no clear call, values can overlap the other calls;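 also: 0% = vehicle wells and 100% = reference inhibitor control wells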
Target sequence (P9WHJ3 whole entry, looked up): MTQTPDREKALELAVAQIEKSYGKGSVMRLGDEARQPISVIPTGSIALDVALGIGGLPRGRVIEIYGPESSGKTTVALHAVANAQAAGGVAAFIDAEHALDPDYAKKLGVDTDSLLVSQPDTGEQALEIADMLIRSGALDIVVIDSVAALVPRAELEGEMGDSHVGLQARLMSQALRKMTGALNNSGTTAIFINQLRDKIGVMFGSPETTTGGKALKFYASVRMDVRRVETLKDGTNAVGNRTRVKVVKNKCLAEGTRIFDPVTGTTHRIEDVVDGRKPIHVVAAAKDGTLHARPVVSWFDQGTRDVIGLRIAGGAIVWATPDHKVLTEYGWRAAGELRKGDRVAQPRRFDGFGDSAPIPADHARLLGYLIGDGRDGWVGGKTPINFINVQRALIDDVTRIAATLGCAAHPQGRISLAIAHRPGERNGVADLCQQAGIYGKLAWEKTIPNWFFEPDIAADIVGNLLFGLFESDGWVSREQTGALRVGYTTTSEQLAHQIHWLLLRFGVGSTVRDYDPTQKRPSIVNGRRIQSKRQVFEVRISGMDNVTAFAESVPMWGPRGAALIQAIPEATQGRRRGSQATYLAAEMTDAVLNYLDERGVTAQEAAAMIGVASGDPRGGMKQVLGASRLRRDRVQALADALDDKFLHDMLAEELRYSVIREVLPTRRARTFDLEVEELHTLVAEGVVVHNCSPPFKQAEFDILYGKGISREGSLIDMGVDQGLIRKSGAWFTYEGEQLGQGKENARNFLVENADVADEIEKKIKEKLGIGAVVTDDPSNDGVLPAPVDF
Mtb betalactam: beta-lactam sensitization of Mtb H37Rv | M. tuberculosis H37Rv growth with meropenem, percent inhibition; hits of this screen are not shown here | inhibition, % at 25 µM | 0.27% of 330,000 active;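 active = about 74% or more and at least 40 points above the plate without the antibiotic, then above 30% in a dose series; inconclusive = first-round hits that could not be retested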;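 also: growth measured after seven days incubation then overnight dye step; 0% = bacteria only wells and 100% = bacteria with antibiotic; twin plates without the antibiotic show which effects depend on it; some results filed as inactive read as strong as hits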
YopH inh: YopH (Yersinia) phosphatase inhibition. inhibition, %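 (about 10 µM by stock and volumes)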. fluorescence Ex485/Em525. 0.16% of 140,000 active;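 active = inhibition of 50% or more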;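 also: controls were vehicle for no effect and minimum signal wells for full effect; inactives centre near -20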
Arbovirus inh repeat: also measured in Arbovirus inh; calls as there; inhibition, %; measured here: 10K subset replicate screen; many hits read low in the repeat;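 first of two repeat runs on a subset; 0% = infected and 100% = uninfected wells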
Active calls of the source: *. Not all compounds are listed, so the mix of outcomes need not match the whole.

`CCOC(=O)[C@@H]1[C@H]2COc3cc(OC)ccc3[C@@H]2N2C(=O)N(c3ccc(C)cc3)C(=O)[C@]12C` gave Mtb growth 10.8%, RecA intein inh 2.4 and Mtb betalactam 6.7.
`O=C(O)CCC(=O)NCC(=O)c1ccc(F)cc1` gave Mtb growth 13.8%, RecA intein inh -1.6 and Mtb betalactam -4.5.
`CCCS(=O)(=O)C(=C1NCCO1)S(=O)(=O)CCC` gave Mtb growth 1.5%, Arbovirus inh 5.0, RecA intein inh 1.4, Mtb betalactam -2.2 and YopH inh -8.3.
`CCNC(=S)N1CCN(CCN=CC2=C(O)CC(c3ccco3)CC2=O)CC1` (stereo unspecified) gave Mtb growth -17.5%, Arbovirus inh 4.7, RecA intein inh 3.2, Mtb betalactam 4.6 and YopH inh -17.0.
Screening CC(C)N(C(=O)CC1ON(C)C(=O)N1c1ccc(Cl)cc1)C(C)C (stereo unspecified) returned Mtb growth -4.4%, Arbovirus inh 5.3 and Mtb betalactam -1.5.
For Cc1nnc(C)n1/N=C/C=C/c1ccccc1 the results were Mtb growth -2.3%, Arbovirus inh -0.6, RecA intein inh -0.6, Mtb betalactam 2.3 and YopH inh 0.5.
CN(C)CCn1c(=O)n(Cc2ccccc2)c(=O)c2c3c(sc21)CCCCC3 was read as RecA intein inh 4.5 and Mtb betalactam -4.2.
For COc1cc(/C=N/N2CCN(Cc3ccccc3)CC2)cc(OC)c1OC(C)=O the results were RecA intein inh -3.6 and Mtb betalactam 6.6.
For O=C(c1cc(-c2ccccc2)nc2ccccc12)N1CCCc2ccccc21 the results were Mtb growth 1.4%, Arbovirus inh -9.8, RecA intein inh 18.7, Mtb betalactam 6.2 and YopH inh -19.3.
COC(=O)c1c(C)oc2c1cc(NS(=O)(=O)c1cccs1)c1ccccc12 was read as Mtb growth -1.1%, Arbovirus inh -31.7, RecA intein inh 5.0, Mtb betalactam -1.2 and YopH inh 2.2.
CCn1c(CC(=O)Nc2ccccc2F)nnc1SCC(=O)N1CCOCC1 was read as RecA intein inh 0.8 and Mtb betalactam 1.1.
`O=C(CN1CCN(c2ccc(F)cc2)CC1)NCc1ccc(Cl)cc1` gave RecA intein inh -0.8 and Mtb betalactam -0.1.
`CC(C)(C)NC(=O)NC(=O)CN1CCC(Cc2ccccc2)CC1` gave Mtb growth -6.2%, Arbovirus inh 13.0, RecA intein inh 5.4 and Mtb betalactam 2.1.
`COc1cc2c(C#N)c(N3CCOCC3)nc(N)c2c(N)n1` gave Mtb growth -0.7%, Arbovirus inh -9.6, RecA intein inh 1.6, Mtb betalactam -10.2 and YopH inh 1.5.
For O=C(NCCc1ccccc1)c1ccc(NC(=O)c2cccnc2)cc1 the results were RecA intein inh -1.3 and Mtb betalactam 1.4.
`CCc1nnc(NC(=O)CSCc2cc(=O)n3cc(C)sc3n2)s1` gave RecA intein inh -1.0 and Mtb betalactam 0.5.
CN(CC(=O)Nc1ccccc1Cl)C(=O)COC(=O)CSc1ccc(F)cc1 was read as RecA intein inh 0.4 and Mtb betalactam -7.7.
`O=C(Nc1ccc(CN2CCS(=O)(=O)CC2)cc1)c1ccc(F)cc1` gave Mtb growth -7.8%, RecA intein inh 0.7 and Mtb betalactam 0.1.
For Cc1ccnc(NS(=O)(=O)c2ccc(NC(=O)CN3C(=O)CCC3=O)cc2)n1 the results were Mtb growth -2.1%, Arbovirus inh -3.9, RecA intein inh 1.3 and Mtb betalactam -5.0.
CN(C)c1ccc(/C=N/NC(=O)CNC(=O)/C=C/c2ccco2)cc1 was read as RecA intein inh -3.6 and Mtb betalactam -1.9.
`O=C(CSc1ccccn1)NC1CCCC1` gave Mtb growth 2.4%, Arbovirus inh -3.9, RecA intein inh 1.3 and Mtb betalactam 11.2.
Cc1cc(=O)[nH]c(N2CCc3ccccc3C2)n1 was read as Mtb growth -4.1%, Arbovirus inh -4.6, Mtb betalactam 3.9 and YopH inh -18.4.
CCCCNC(=S)NNC(=O)c1ccc2c(c1)OCO2 was read as Mtb growth -14.4%, Arbovirus inh -7.4, RecA intein inh -0.4, Mtb betalactam 2.2 and YopH inh -22.4.
O=C(O)c1cc(NC(=O)c2cccc(N3C(=O)c4ccccc4C3=O)c2)cc(C(=O)O)c1 was read as RecA intein inh -0.7 and Mtb betalactam -0.2.
Screening CC1CC(C)CN(CCCNC(=O)C2CCCN(S(=O)(=O)N3CC(C)CC(C)C3)C2)C1 (stereo unspecified) returned RecA intein inh 4.9 and Mtb betalactam -0.2.
Screening CC1CN(C(=O)c2ccccc2)OC(c2ccc3c(c2)OCO3)O1 (stereo unspecified) returned Mtb growth -0.6%, Arbovirus inh -3.6, RecA intein inh -2.8, Mtb betalactam 1.6 and YopH inh -15.9.
COc1ccc(C2(C(=O)O)CCCC2)cc1 was read as Mtb growth 5.2%, Arbovirus inh 6.9, RecA intein inh -1.2, Mtb betalactam -2.1 and YopH inh -52.2.
COC(=O)c1scc(C)c1NC(=O)C(Cl)c1ccccc1 (stereo unspecified) was read as Mtb growth 2.9%, Arbovirus inh 0.7, RecA intein inh 0.5 and Mtb betalactam 4.7.
Cc1nc(Cl)sc1C(=O)Nc1cccc(Cl)c1 was read as RecA intein inh -0.2 and Mtb betalactam -4.5.
Screening Cc1ccc(-c2nnc(CSc3nncn3N)o2)cc1 returned Mtb growth -7.0%, Arbovirus inh -2.5, RecA intein inh 0.1, Mtb betalactam 4.0 and YopH inh -20.3.
CCOC(=O)C1(C)NC(c2ccco2)C2C(=O)N(c3ccccc3)C(=O)C21 (stereo unspecified) was read as Mtb growth -10.7%, Arbovirus inh 18.7, RecA intein inh -0.7 and Mtb betalactam -3.9.
For CN(C)CCCNc1nc(N)c([N+](=O)[O-])c(NC2CCCCC2)n1 the results were RecA intein inh 0.4 and Mtb betalactam -7.8.
For Clc1cccc(N2CCN(Cc3nnc(-c4ccccc4)o3)CC2)c1 the results were Mtb growth 3.0%, Arbovirus inh 18.6, RecA intein inh 2.9 and Mtb betalactam 6.4.
COc1cc(/C=C/c2nc3ccc([N+](=O)[O-])cc3s2)ccc1OCC(=O)O was read as Mtb growth -9.2%, RecA intein inh -6.6 and Mtb betalactam 34.4.
CCOc1ccccc1N/C=C/C(=O)C(C)(C)C was read as Mtb growth 4.1%, Arbovirus inh -2.7, RecA intein inh 2.7, Mtb betalactam 1.9 and YopH inh 23.1.
CCC(=NCc1ccco1)c1c(O)n(C2CCCCC2)c(=O)[nH]c1=O was read as Mtb growth 10.9%, Arbovirus inh 10.5, RecA intein inh -2.3, Mtb betalactam -0.8 and YopH inh -45.0.
For Cc1cccc(N2CCN(C(=O)c3ccc(CNc4c(N5CCC(C)CC5)c(=O)c4=O)cc3)CC2)c1C the results were Mtb growth 73.1%, Arbovirus inh -13.3, RecA intein inh -2.6 and Mtb betalactam 99.5.
For O=C(CN(Cc1ccc(Cl)cc1)C(=O)CN1C(=O)COc2ccccc21)NC1CCCC1 the results were RecA intein inh -3.7 and Mtb betalactam 1.1.
CN(CC(=O)Nc1ccc(N2CCOCC2)cc1)Cc1cc(=O)n2ccsc2n1 was read as Mtb growth -7.6%, Arbovirus inh 13.4, RecA intein inh -0.8 and Mtb betalactam -3.8.
Screening O=C(CSc1nnc(CNC(=O)c2ccco2)o1)Nc1cccc(C(F)(F)F)c1 returned RecA intein inh -1.8 and Mtb betalactam 5.8.
COc1ccc(OC)c(Cc2nnc(CCC(=O)NCc3ccsc3)o2)c1 was read as Mtb growth -1.8%, Arbovirus inh -0.5, RecA intein inh -1.1 and Mtb betalactam -3.5.
`NC(=O)c1ccsc1NC(=O)COC(=O)Cc1c[nH]c2ccccc12` gave RecA intein inh -1.4 and Mtb betalactam -6.7.
Screening CC(C)(C)C(=O)Nc1ccc(-c2nnc3n2CCCCC3)cc1 returned RecA intein inh -0.4 and Mtb betalactam -1.4.
`CC1CCc2nn(CC(=O)NCc3ccc(F)cc3)cc2C1` (stereo unspecified) gave Mtb growth -12.3%, Arbovirus inh -6.4, RecA intein inh -0.7, Mtb betalactam inconclusive, YopH inh -26.5 and Arbovirus inh repeat -4.8.
COc1ccc2nc(NC(=O)c3ccc(NS(=O)(=O)c4cccs4)cc3)sc2c1 was read as Mtb growth 70.1%, Arbovirus inh -14.9, RecA intein inh 3.1, Mtb betalactam 39.6 and YopH inh -19.5.
Screening COc1ccc(C(CNC(=O)c2cccc(NS(=O)(=O)c3ccc(C)c(F)c3)c2)N2CCCC2)cc1 (stereo unspecified) returned RecA intein inh -1.1 and Mtb betalactam 2.9.
For Cc1nc([N+](=O)[O-])c(C(=O)OCc2ccccc2F)n1C the results were Mtb growth 3.5%, Arbovirus inh -0.1, RecA intein inh -2.4 and Mtb betalactam -5.4.
`CCC(C)(C)n1nnnc1C(c1ccccc1F)N1CCC(C(N)=O)CC1` (stereo unspecified) gave Mtb growth -7.9%, Arbovirus inh 7.2, RecA intein inh -2.0, Mtb betalactam -5.5 and YopH inh -34.3.
Screening COC(=O)Nc1ccc(OC)c(OC)c1 returned Mtb growth -0.9%, Arbovirus inh -1.7, RecA intein inh 1.9, Mtb betalactam -2.8 and YopH inh -16.0.
`CCC(NC(=O)OCc1ccccc1)C(=O)Oc1ccc2ccc(=O)oc2c1` (stereo unspecified) gave RecA intein inh -39.0 and Mtb betalactam 33.6.
Screening COC(=O)c1cc(=O)n(Cc2ccco2)c(=Nc2ccc(F)c(Cl)c2)s1 returned Mtb growth 45.5%, Arbovirus inh -29.0, RecA intein inh 0.0, Mtb betalactam 50.0, YopH inh -64.4 and Arbovirus inh repeat -27.1.
`Cc1ccccc1-n1c(-c2ccncc2)n[nH]c1=S` gave Mtb growth -4.1%, Arbovirus inh 1.1, RecA intein inh -3.6 and Mtb betalactam -0.1.
For Fc1ccc(Nc2nc(NCc3ccco3)c3ccccc3n2)cc1 the results were Mtb growth inconclusive, RecA intein inh 48.8* and Mtb betalactam 98.2.
`CC1CCN(C(=O)C2CCN(S(=O)(=O)N3CCC4(CC3)OCCO4)CC2)CC1` gave RecA intein inh 4.9 and Mtb betalactam -10.5.
`CCOC(=O)C1CCN(Cc2cc(C(C)(C)C)c(O)c(C(C)(C)C)c2)CC1` gave Mtb growth 1.2%, Arbovirus inh 15.2, RecA intein inh -0.6 and Mtb betalactam -5.1.
`Cc1ccc(C)c(N2CCN(C(=O)CCNS(=O)(=O)c3ccc4c(c3)oc(=O)n4C)CC2)c1` gave RecA intein inh 1.5 and Mtb betalactam 4.4.
For O=C(Nc1ccc2c(c1)CCC2)c1cnccn1 the results were Mtb growth 7.8%, Arbovirus inh -5.6, RecA intein inh 0.0 and YopH inh 7.9.
O=C(Nn1cnnc1)c1ccncc1 was read as Mtb growth -14.8%, Arbovirus inh 13.1, RecA intein inh -1.4, Mtb betalactam -7.3 and YopH inh -46.5.
CCc1ccc(OCC(=O)Nc2ccncc2)c(Br)c1 was read as RecA intein inh -0.3 and Mtb betalactam 2.5.
Screening O=C(N1CCOCC1)N1CCC(NC(=O)C23CC4CC(CC(C4)C2)C3)CC1 returned Mtb growth -1.2%, Arbovirus inh 7.1, RecA intein inh -2.3, Mtb betalactam -0.1 and YopH inh 7.4.

Two entries drawn at random from those above, as already listed:
`CC1CCN(C(=O)C2CCN(S(=O)(=O)N3CCC4(CC3)OCCO4)CC2)CC1` gave RecA intein inh 4.9 and Mtb betalactam -10.5.
`CCC(C)(C)n1nnnc1C(c1ccccc1F)N1CCC(C(N)=O)CC1` (stereo unspecified) gave Mtb growth -7.9%, Arbovirus inh 7.2, RecA intein inh -2.0, Mtb betalactam -5.5 and YopH inh -34.3.

Next structures
`COc1ccc(C2/C=C\CN(CC(C)(C)C)CC(=O)N2Cc2ccc(F)cc2)cc1` (stereo unspecified) gave Mtb growth -2.5%, RecA intein inh 6.8 and Mtb betalactam -3.3.
For O=C(NNc1cc(Cl)cc(Cl)c1)c1cccs1 the results were Mtb growth 63.1% and Mtb betalactam 98.5.
COc1cc(O)c2c(=O)c(-c3ccc(O[C@@H]4O[C@H](CO)[C@@H](O)[C@H](O)[C@H]4O)cc3)coc2c1 was read as RecA intein inh -0.1 and Mtb betalactam 3.9.
Screening Clc1ccc(Nc2ccc(Cl)nn2)cc1 returned Mtb growth -4.9%, RecA intein inh -7.9 and Mtb betalactam -5.7.
Screening COc1ccc(COC(=O)C2=C(C)NC(=O)NC2c2ccc(O)cc2)cc1 (stereo unspecified) returned RecA intein inh -0.4 and Mtb betalactam 3.1.
CC(=O)c1cc(-c2ccccc2)n(CCC(=O)NC2CCCCCC2)c1C was read as Mtb growth 5.6%, Arbovirus inh -7.2, RecA intein inh 2.9, Mtb betalactam -3.3 and YopH inh -28.5.
O=S(=O)(NC1CCCCC1N1CCOCC1)c1ccc(Cl)cc1 (stereo unspecified) was read as Mtb growth 1.2%, Arbovirus inh 3.1 and Mtb betalactam -7.0.
`Cc1nc([N+](=O)[O-])nn1C12CC3CC(CC(Cl)(C3)C1)C2` gave Mtb growth 7.1%, Arbovirus inh 0.1, RecA intein inh 0.6, Mtb betalactam 5.6 and YopH inh -26.4.
